# NPR1 antag = blocks ANP-stimulated signaling of human Npr1 receptor. P16066. HEK293 hNpr1 GloSensor cGMP, ANP-stimulated luminescence. Potency, µM (doses to about 46.3 µM), for the others: top-dose activity change, negative = inhibition, usual class: inhibitors. actives 1.6% (n = 76,000); active = well fitted inhibition curve with a large enough effect; inconclusive = small, poorly fitted or top-dose-only effect; inactive = no such curve, though single readings can be large or run the other way;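 further: nearly all actives have a fitted effect of over 60% in size; nearly all hits also lower the signal before the agonist is added; a reference antagonist and vehicle were the controls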
# Target sequence (P16066 whole entry, looked up): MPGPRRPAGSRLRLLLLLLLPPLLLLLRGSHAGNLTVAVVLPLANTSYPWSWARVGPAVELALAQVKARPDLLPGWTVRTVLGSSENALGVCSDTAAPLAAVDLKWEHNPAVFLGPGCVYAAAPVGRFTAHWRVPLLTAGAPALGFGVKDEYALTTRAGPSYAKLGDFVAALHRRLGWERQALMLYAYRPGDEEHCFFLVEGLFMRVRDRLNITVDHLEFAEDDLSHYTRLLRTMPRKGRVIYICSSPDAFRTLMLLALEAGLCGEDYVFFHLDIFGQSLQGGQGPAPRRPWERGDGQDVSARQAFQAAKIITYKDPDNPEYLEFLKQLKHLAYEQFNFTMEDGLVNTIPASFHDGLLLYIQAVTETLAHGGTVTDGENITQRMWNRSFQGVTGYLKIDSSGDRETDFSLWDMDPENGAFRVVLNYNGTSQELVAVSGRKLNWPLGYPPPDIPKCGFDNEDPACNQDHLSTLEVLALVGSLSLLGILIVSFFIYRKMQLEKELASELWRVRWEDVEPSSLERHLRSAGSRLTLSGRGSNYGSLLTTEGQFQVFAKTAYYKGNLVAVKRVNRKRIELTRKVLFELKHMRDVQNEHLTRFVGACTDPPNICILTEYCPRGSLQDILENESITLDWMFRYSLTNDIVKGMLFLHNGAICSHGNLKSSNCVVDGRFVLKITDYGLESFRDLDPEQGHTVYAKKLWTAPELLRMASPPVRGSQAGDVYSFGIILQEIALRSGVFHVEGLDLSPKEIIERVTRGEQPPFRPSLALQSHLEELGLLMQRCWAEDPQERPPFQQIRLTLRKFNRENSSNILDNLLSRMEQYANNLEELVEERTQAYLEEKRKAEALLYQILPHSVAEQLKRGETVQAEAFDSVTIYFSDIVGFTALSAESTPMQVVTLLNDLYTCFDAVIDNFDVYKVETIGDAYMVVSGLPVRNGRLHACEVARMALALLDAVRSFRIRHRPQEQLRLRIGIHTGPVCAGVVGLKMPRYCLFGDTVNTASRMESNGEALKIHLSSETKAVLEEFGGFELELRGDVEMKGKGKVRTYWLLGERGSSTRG
#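 Compound pre-incubated 30 min at room temperature on GloSensor-loaded HEK293 cells stably carrying hNpr1 and the pGS-40F cGMP biosensor. Stimulation uses hNppA at 0.1 nM final; luminescence is taken at baseline and 20 min post-agonist.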
# The depositor's hits bear a star; u = inconclusive; & = joins results of further samples; [ ] = dose if it differs, or a comment. On the % scale 0 is the no-effect control and ±100 the full control effect; potency means the concentration at half of the fitted maximal effect.
molecule	NPR1 antag
CCO[C@H]1COC[C@@H]1NC(=O)c1csc(-c2cccs2)n1	3%
COC(=O)C1=C(C)N=C2SC=C(CC(=O)NC3CC4CCC3C4)N2C1c1ccsc1 (configuration not stated)	-12%
O=C(CCc1nc2ccc(Cl)cc2[nH]1)N1CCc2n[nH]c(=O)n2CC1	-5%
CCN1C(=O)C2CC3(CCN(C(=O)c4nccc5ccccc45)CC3)CN2C1=O (configuration not stated)	2%
O=C(C1CCC1)N1CCC2(CC1)CN(c1ccccc1)C2=O	3%
COc1ccc(C(=O)N2CC[C@@H](CC(=O)O)[C@@H](CCN3CCC[C@H]3C(N)=O)C2)cc1	-3%[70.6 µM]
CCCCNC(=O)C1CCc2sc(C(=O)N3CCCCC3)cc2C1 (configuration not stated)	-15%
COc1ccc(CCC(=O)NCc2nnc3c(-c4nc(C(C)C)no4)cccn23)cc1	6%
COc1ccc(C(=O)N2CCc3ccc(C(=O)NCc4ccccc4)cc32)cc1	-10%
CN(C)c1ccc2ncc(Nc3cccc(C(F)(F)F)c3)n2n1	6%[70.6 µM]
O=C(Cc1c[nH]c2ncc(-c3ccccc3)cc12)NCc1cnccn1	-3%[70.6 µM]
Cc1ccc(C(=O)N2CC[C@](O)(c3ccccc3)[C@H](N(C)C)C2)s1	-1%
CN[C@H](C(=O)N[C@H]1C[C@@](O)(C(=O)N[C@H](CC(C)C)C(N)=O)C[C@@H](O)[C@@H]1O)C(C)C	-1%[70.6 µM]
COCC(=O)N[C@@H]1CN(Cc2cccc(OC)c2OC)C[C@H]1CO	-15%
O=C(NCCn1ccn2nc(-c3ccc(F)cc3)cc2c1=O)c1cccs1	-19%
CN1CC(=O)N(c2ccccc2F)Cc2c1ncnc2N1CCOCC1	-1%
C[C@@H](NC(=O)c1cccnc1)c1onc(-c2cccnc2)c1C(=O)O	-2%[70.6 µM]
Cc1nc(C2CC(NC(=O)c3cnc(N)nc3C(F)(F)F)C2)cc(=O)[nH]1 (configuration not stated)	5%
O=C(Cc1c[nH]c2ccccc12)N1CCC(c2nc(CCOCC3CCCC3)no2)C1 (configuration not stated)	u
COc1ccc(-c2nc3c(c(=O)[nH]2)CCN(C(=O)Cc2ccc(OC)c(Cl)c2)C3)cc1	1%
O=C1CC(c2cn[nH]c2C(=O)O)c2c(n[nH]c2-c2cccs2)N1 (configuration not stated)	0%
O=C(CCC[C@@H]1[C@H]2CCCN3CCC[C@@H](CN1C(=O)c1cccnc1)[C@@H]23)NCCc1ccccn1	3%
COCCN1CCCC1c1nc(C2CN(C(=O)c3ncccc3C)C2)no1 (configuration not stated)	5%
CN1C[C@H](O)C[C@H]1c1nnc2n1CCN(Cc1ccc(F)cc1F)C2	13%
O=C(Cc1ccccc1Cl)N1CCN(c2cc(C(F)(F)F)ncn2)CC1	-18%

# (cont.)
molecule	NPR1 antag
CCOc1cc(-c2noc(-c3ncn4c3COC(c3ccc(OC)cc3)C4)n2)ccc1OC (configuration not stated)	3%
O=C(Cn1nc2c(cc1=O)CCCCC2)Nc1ccccn1	2%
COc1ccc([C@H]2C[C@@H](O)[C@@H](O)[C@@H]2NC(=O)c2ccccc2)cc1	-27%[70.6 µM]
CCN1CC2(CCC1=O)CCN(CCS(=O)(=O)c1ccccc1)CC2	1%
CNC(=O)[C@@H]1CN(S(=O)(=O)c2cccc(C)c2)C[C@H]1COC	-1%
COc1ccc2[nH]cc(CCNC(=O)C3Cn4cccc4C(=O)N3C)c2c1 (configuration not stated)	-8%
Cc1cc(C(=O)N2CCC(c3noc(-c4cnccn4)n3)C2)nn1C (configuration not stated)	4%
O=C(Cc1ccsc1)N1CCOc2ccc(CN3CCc4ccccc4C3)cc2C1	-5%
COc1cccc(CN2CCCCC(N)C2)c1OCCn1ccnc1 (configuration not stated)	-13%
Cc1ccc(-c2nc(CNC(=O)[C@@H]3C[C@@H](O)CN3)[nH]c2-c2ccccn2)cc1	-2%
O=C(NC1CCCCC1)N1CCCC(Cn2c(C3CC3)nc3cccnc32)C1 (configuration not stated)	-1%
COCCn1cnnc1CN(C)C(=O)c1ccc2nc(C)cn2c1	4%
CC(C)NC[C@H]1O[C@@H]2C[C@@H](CC(=O)N3CCC(F)(F)C3)O[C@@H]2[C@@H]1O	4%[70.6 µM]
Cn1cccc1C(=O)N[C@H]1C[C@@H]2C(=O)N[C@H]3CCN(C(=O)Cc4cccs4)[C@@H]3C(=O)N2C1	5%
COc1ccc(Cl)cc1NC(=O)N1CC(c2noc(-c3ccncc3)n2)C1	0%
COc1ccc(CCNC(=O)c2c(C)noc2-c2ccccc2Cl)cc1	-13%
Cc1noc(C)c1CNC(=O)C1CCCNC1 (configuration not stated)	0%
CCCS(=O)(=O)N1CCC(F)(c2nc(-c3ccccc3)no2)CC1	-30%
Cn1cc(CN2CC3(COCC(=O)N(Cc4cccc(OC(F)(F)F)c4)C3)C2)cn1	-16%[70.6 µM]
COCC(C)Nc1nccc(C2(c3ccccc3Cl)CCNCC2)n1 (configuration not stated)	-1%
CC(C)c1nc2c(c(-c3ccc(O)cc3)n1)CCN(Cc1ccc(OC(F)(F)F)cc1)CC2	6%
NC(=O)CN1CCC(C(=O)N2CCCC(CO)(CC3CC3)C2)CC1 (configuration not stated)	0%
C=CCNC(=O)N[C@H]1CO[C@H]2[C@@H]1OC[C@@H]2Nc1nccc(C(C)(C)C)n1	-18%[70.6 µM]
CC1=C[C@@H](CNCc2ccccn2)[C@H](C(C)C)C[C@H]1Cc1nnc(-c2ccccc2F)o1	-21%[70.6 µM]
Cc1nc(N2CCC(NC(=O)c3nn(C)c4ccccc34)CC2)cc(C(F)(F)F)n1	u

# The results go on.
mol | NPR1 antag
COc1cccc(NCc2nnc(C(=O)N3CCC[C@@H]3c3ccc(Br)cc3)n2Cc2ccccc2)c1 | -22%
CCCN(C)c1nccnc1OC1CCN(C(=O)c2ccnn2C)C1 (configuration not stated) | 4%
COC[C@H]1CCCN1C(=O)CC[C@H]1CNC(=O)[C@@H]2[C@@H](CCN2Cc2ccc(S(C)(=O)=O)cc2)N1C | 1%
Cc1csc(NC(=O)c2nc3c(o2)CCN(Cc2ccc(C#N)cc2)CC3)n1 | u
COc1ccc(CNC(=O)c2nnn3cc(C)[nH]c(=O)c23)cc1 | 2%
O=C(c1cccc(Cl)c1)N1CCC(c2nn(-c3ccc(F)cc3)c(=O)[nH]2)CC1 | 9%&-14%
O=[S+]([O-])(Nc1ccccc1)c1ccc2c(c1)OCCN(Cc1ccc(F)cc1)C2 | u
CCC(C)NC(=O)c1ccc(-c2nnc3ccc(NC(=O)C4CC4)cn23)cc1 (configuration not stated) | 0%
CC(C)C1CN(CC2CCC(N)CC2)CCC(=O)N1Cc1ccc(F)cc1 (configuration not stated) | -4%
O=C(CCc1ccccc1)N1CCC(c2n[nH]c(=O)n2Cc2ccc(F)cc2)CC1 | -13%

# Additional entries follow.
mol | NPR1 antag
COC(=O)C1=C(C)N=C2SC=C(CC(=O)N3CCC(C)CC3)N2C1c1cccc(OC)c1 (configuration not stated) | u
COC(=O)c1ccc(CN2C(=O)[C@@H]3C[C@@H](O)CN3C3(CN(Cc4ccccc4Cl)C3)C2=O)cc1 | -11%
Cc1cccc(C(=O)N2CCCCCNC(=O)[C@@H]3CCC[C@@H]32)c1 | 4%
COCC(=O)Nc1nc2c(s1)C[C@@H]1[C@](C)(CO)[C@H](O)CC[C@@]1(C)[C@@H]2CC(=O)NCc1ccccc1 | 2%
Cc1noc(C)c1CC(=O)N1CCCC(c2noc(COc3ccccc3F)n2)C1 (configuration not stated) | 15%
CN(Cc1ccc(Oc2ncccn2)cc1)CC1CCN(CCc2ccc(F)cc2)CC1 | 6%
CC1(COCC2CC2)COc2ccc(C(=O)NCc3ccc4c(c3)OCO4)cc2N1 (configuration not stated) | -2%[70.6 µM]
CCOc1ccc(C(=O)N2CCC(Cc3nc(-c4ccc(F)cc4)no3)CC2)cc1OCC | 4µM*
CCCn1ccnc1CN1C[C@@H](NC(=O)c2ccon2)C[C@H]1C(=O)NCC | 7%
O=C(c1cc2c(s1)CN(C1CCCC1)C2)N1CCCN(c2ncccn2)CC1 | -10%

# Given with values ahead of the structure: entries from further up
NPR1 antag	Compound
0%	NC(=O)CN1CCC(C(=O)N2CCCC(CO)(CC3CC3)C2)CC1 (configuration not stated)
4%	COCCn1cnnc1CN(C)C(=O)c1ccc2nc(C)cn2c1

# Additional results follow.
mol | NPR1 antag
Cc1ncoc1C(=O)N[C@@H]1CN(Cc2ccccc2)C[C@H]1CN(C)C | 2%
Cc1cccc(S(=O)(=O)N2C[C@@H](F)C[C@H]2C(=O)N2CCCCC2)c1 | 4%
CCN1c2cc(C(=O)Nc3ccc(F)cc3)ccc2C(=O)N2CCCC21 (configuration not stated) | 0%
CS(=O)(=O)N1CCCC1c1noc(CCC(=O)NC2CCS(=O)(=O)C2)n1 (configuration not stated) | -14%
COc1ccc(NC(=O)[C@@H]2COCC(=O)N2Cc2ccccc2)cc1 | 0%
OCc1ccc(CN2CCC[C@H]2c2nc(-c3ccc(N4CCOCC4)nc3)no2)o1 | 3%[70.6 µM]
O=C(NCCc1noc(C2CC2)n1)NC1CCCC1 | 1%
COc1ccc(C(=O)NC2CCN(C(=O)N3CC4CC(C3)[C@H]3CCCC(=O)N3C4)CC2)cc1F (some centres not stated) | 0%
COCCn1cnnc1CCNC(=O)c1oc2cc(OC)ccc2c1C | -1%
Cc1nnc(-c2cc(-c3cccc(CO)c3)ccn2)n1Cc1ccccc1 | 0%[70.6 µM]

# (continued)
mol | NPR1 antag
O=C(c1ccc(F)cc1)N1CCCN(c2nc3ncccc3o2)CC1 | 1%[70.6 µM]
CN(Cc1nc(C2CC2)no1)C(=O)c1cccc(CC2CCNCC2)c1 | 0%
Cc1ccc(C(=O)N2CCN(c3cc(-c4cccs4)[nH]n3)CC2)cc1C | -25%
CCn1ccc(C(=O)N2CCC(c3n[nH]c(=O)n3-c3ccc(C)cc3)CC2)n1 | -2%
O=C(NCc1nnc2ccc(-c3ccccc3)nn12)c1ccco1 | 5%
CCNC(=O)[C@@H]1C[C@H](N)CN1S(=O)(=O)c1cnn(CC)c1C | 6%
COc1ccc(-c2cnc3[nH]cc(CC(=O)N4CCC(OC)CC4)c3c2)cc1 | -13%[70.6 µM]
CC(C)(C)C(=O)N[C@H]1CO[C@H]2[C@@H]1OC[C@@H]2Nc1nccc(-c2cccc(C#N)c2)n1 | 12%[70.6 µM]
O=C1NC2(CCN(S(=O)(=O)c3cccs3)CC2)Oc2ccccc21 | -29%
O=[S+]([O-])(NCC1CN(Cc2ccc3[nH]ccc3c2)CC12CN(c1ccccc1)C2)c1ccccc1 (configuration not stated) | 3%

# (listing goes on)
mol | NPR1 antag
Cc1ccc(CN2CCc3nc(C(=O)NCc4cccc(F)c4)oc3CC2)o1 | 1%[70.6 µM]
CCOC(=O)c1ccc(NC(=O)N2CCc3c(nc4cc[nH]n4c3=O)C2)cc1 | 1%
Cc1cnc(NC(=O)c2ccc3c(c2)OCCN(c2ccccc2)C3)s1 | -16%[70.6 µM]
COCc1nc(CCNS(=O)(=O)c2cccc(OC)c2)no1 | -2%
COCC(=O)Nc1nc2c(s1)C[C@@H]1[C@](C)(CO)[C@H](O)CC[C@@]1(C)[C@@H]2CC(=O)NCCN1CCOCC1 | 2%
CCOC(=O)C1(Cc2ccccc2Cl)CCN(C(=O)c2ccsc2)CC1 | -11%
O=C(NCCc1ccc(Cl)cc1)c1nc(-c2cccc(F)c2)c2cnccn12 | 6%
O=C([C@@H]1C[C@H](Oc2ccccc2)CN1S(=O)(=O)c1cccs1)N1CCOCC1 | -2%
COc1ccc2c(ccn2CCC(=O)Nc2ccc3c(c2)C(=O)N2CCC[C@H]2C(=O)N3)c1 | 3%
O=C(NC1CCCCC1)C1CN(C(=O)c2ccccc2F)CC12CCOCC2 (configuration not stated) | 3%

# Next part
mol | NPR1 antag
Cc1ccc(C(=O)N2CCn3c(nnc3C3CC3)C2)cc1 | -1%[70.6 µM]
COc1ccc(CN2CCc3oc(C)c(C(=O)N4CCOCC4)c3C2)cc1 | -1%
COc1ccc(F)cc1-c1nc2ccc(-c3ccc(OC)c(OC)c3OC)cc2o1 | 3%
COCCC1(CO)CCCN(C(=O)CCc2c(C)noc2C)C1 (configuration not stated) | 26%
O=C(NCC12CCC=C1N(Cc1ccccc1)C(=O)CC2)c1cccnc1 (configuration not stated) | 4%
CC(C)CN(Cc1cnn(C)c1)C(=O)c1cccc(OCC(N)=O)c1 | 0%
O=C(Nc1cccc(F)c1)c1cnc2c(c1)N(C(=O)CCc1ccccc1)CCC2 | -17%[70.6 µM]
COc1ccc2cc(C3CN(C(=O)c4cc(C(C)=O)n[nH]4)CCO3)ccc2c1 (configuration not stated) | u
CC(=O)N1CCCC2(C1)CN(C)c1ccc(C(=O)NC(C)C)cc12 (configuration not stated) | 0%[70.6 µM]
NC(=O)NCCN1CCCC(N2CCN(Cc3ccc4c(c3)OCO4)CC2)C1 (configuration not stated) | -1%

# 4 of the compounds above, as labelled records.
> O=C(CCc1nc2ccc(Cl)cc2[nH]1)N1CCc2n[nH]c(=O)n2CC1
  NPR1 antag: -5%

> CCN1C(=O)C2CC3(CCN(C(=O)c4nccc5ccccc45)CC3)CN2C1=O (configuration not stated)
  NPR1 antag: 2%

> O=C(C1CCC1)N1CCC2(CC1)CN(c1ccccc1)C2=O
  NPR1 antag: 3%

> COc1ccc(C(=O)N2CC[C@@H](CC(=O)O)[C@@H](CCN3CCC[C@H]3C(N)=O)C2)cc1
  NPR1 antag: -3%[70.6 µM]

# Other structures
mol | NPR1 antag
O=C(Cc1ccc(N(Cc2ccc(F)cc2)C(=O)c2ccco2)cc1)NCCc1ccccc1 | -20%
O=C(NCC(c1cccnc1)N1CCCCC1)c1cn2c(n1)CNCC2 (configuration not stated) | -2%
COc1ccc(CN2CCc3nn(CC4CC4)c(=O)n3CC2)cc1 | -7%
O=C(CCc1conc1-c1cccc(F)c1)NCC1CC1 | 0%

# Assay outcomes from PubChem.

# Some of the compounds tested; rates above refer to the full screens.
